# Bioassay records (PubChem BioAssay)
# Bead autofluor: compound fluorescence in toxin protease inhibitor counterscreen; compound autofluorescence counterscreen, microsphere flow cytometry; active compounds read high; fluorescence intensity (concentration not given with the values); hit rate 3.1% among 360,000; AID 624483;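 active = at least 3 SD above the mean of all compounds, about 16000 in these data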;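 note: 100 nL of 1 mM stock went into each well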
# Mtb hypoxia inh: reduces hypoxia-regulated biosensor signal in M. tuberculosis; fluorescence inhibition, % (test concentration not listed); hit rate 0.1% among 300,000; M. tuberculosis hypoxia-regulated fluorescent reporter, fluorescence;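 active = 35 to 45% if threefold the growth effect, above 45% if 1.5-fold the growth effect; inactive = the rest, general growth blockers included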;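 note: wells of about 50 µL received 100 nL stock; 0% = vehicle wells and 100% = reference inhibitor wells; whole bacteria with a GFP reporter of the hypoxia response; strong numbers were not always called active; many hits fall short of the cut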
# BJeLR lethal: BJeLR cell viability loss | inhibition, % (concentration not given with the values) | AID 1554 | BJeLR (HRASV12) viability, CellTiter-Glo ATP luminescence, 48 h; reference of the scale not given here | hit rate 0.17% among 300,000;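 active = replicate mean above 50%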;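 note: 50 nL library stock added to about 25 µL; numbers are from one replicate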
# RN4220 kill: kills Staphylococcus aureus RN4220. S. aureus RN4220 growth, OD600, 16 h. hit rate 0.33% among 330,000. inhibition, % (test concentration not listed);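 active = z-score of -3 or lower and OD600 up to 0.18 on both plates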;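 note: plate controls were untreated cells for no effect and reference antibiotic for full effect; stock transfer was 100 nL into about 80 µL; one replicate is shown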
# ugtP null kill: growth inhibition of S. aureus ugtP deletion strain; S. aureus RN4220 ugtP deletion, OD600 growth, 16 h; some inactives read as strong as hits; growth inhibition, % (test concentration not listed); hit rate 0.54% among 330,000;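 active = z-score under -3 and OD600 up to 0.15 on both plates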;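 note: plate controls were untreated wells for no effect and antibiotic for full effect; wells of about 80 µL received 100 nL stock; the first replicate is given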
# PrP 5UTR inh: inhibition of PrP 5' UTR reporter expression | cell-based PrP 5' UTR mRNA reporter, plate reader | inhibition, % (concentration not given with the values) | hit rate 0.35% among 340,000 | AID 488862;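 active = every replicate at 50% or more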;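 note: 0 = median of the neutral control wells; tested in H4 reporter cells; numbers are from one replicate; inactives centre near -14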
# Mtb hypoxia inh growth: recorded beside Mtb hypoxia inh, whose call it bears; growth inhibition, %; measured here: M. tuberculosis growth (absorbance);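 0% = vehicle and 100% = reference antibiotic; read after six days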
# An asterisk follows results filed as active; x = no result given; & = joins results of further samples.
# Below each SMILES: Bead autofluor	Mtb hypoxia inh	Mtb hypoxia inh growth	BJeLR lethal	RN4220 kill	ugtP null kill	PrP 5UTR inh
Cn1c(=O)c2c(nc(N3CCCCCC3)n2Cc2cccc3ccccc23)n(C)c1=O
    3809	0	7	-8	1.6	30	-10
COc1cc(C(=O)NCCNc2nc3c(C)c(C)ccc3cc2C#N)cc(OC)c1OC
    x	-15	-10	-7	4.1	11	5
O=C(O)CSCC(=O)NCc1c(Cl)cccc1Oc1ccccc1
    x	-2	-2	1	1.7	6	-2
COc1ccccc1N1CCN(C(=O)c2ccc(S(=O)(=O)N3CCCC3)cc2)CC1
    3011	7	9	1	-13	-2	-15
C=CCN(C(=O)COc1ccccc1)c1nnc(-c2ccncc2)s1
    3485	12	1	-7	1.3	3	-3
CC(C)CN(CCCNC(=O)CN1C(=O)CSc2ccc(S(=O)(=O)N3CCOCC3)cc21)CC(C)C
    3423	12	6	14	3.8	7	-25
CC1CCCCN1C(=O)c1c(Cl)cnn1C (configuration not stated)
    5609	11	13	x	5.4	5	-8
COc1cccc(C2C3CN(C)CC=C3C(C#N)=C(N)C2(C#N)C#N)c1OC (configuration not stated)
    5101	x	x	-1	-0.2	-1	-8
O=C(O)c1ccccc1NC(=O)C1CCCO1 (configuration not stated)
    4122	3	-6	5	5.6	4	-17
CCOC(=O)C(=CNc1cc(C)ccc1[N+](=O)[O-])C(=O)OCC
    3758	-8	13	-3	-1.2	-11	-36
COc1ccccc1NC(=O)c1cc(Cl)ccc1NC(=O)c1ccco1
    2849	x	x	-7	3.0	-9	-2
CCC(C)(C)NC(=O)C1CCCN1C(=O)NC1CCCCC1 (configuration not stated)
    4359	8	2	-1	7.6	4	-32
CCn1nnnc1SCC(=O)Nc1cccc(C)n1
    2696	x	x	4	-0.6	3	-12
Cc1ccc(C=NNC(=O)Cn2cnc3ccccc32)o1
    x	2	9	x	4.1	1	x
CCOC(=O)CSc1nc(C)c2ccccc2n1
    3378	11	8	-7	9.6	0	-35
CCOc1cc(/C=C(\C#N)C(N)=O)ccc1OCc1c(C)no[n+]1[O-]
    3087	-1	5	1	5.0	4	-1
CC(C)c1ccc(/C=C/C(=O)CCC(=O)O)cc1
    4309	5	1	3	9.7	-2	19
COC(=O)c1ccc(CS(=O)(=O)c2ccccc2C)o1
    23513*	2	5	-2	5.3	2	-13
CCOC(=O)CNC(=O)C(NC(=O)C1CCC(C)CC1)C(C)CC (configuration not stated)
    6374	6	1	-18	0.8	10	-15
O=C(NCCC1CCCCN1S(=O)(=O)c1ccccc1)C(=O)NCc1ccc(F)cc1 (configuration not stated)
    x	-4	5	7	-1.8	7	-13
Cc1nn(-c2ccccc2)c(Cl)c1/C=N/NC(=O)c1cccc(S(=O)(=O)N2CCCC2)c1
    2386	x	x	0	x	x	-14
COc1ccc2c(c1)sc1nc(=O)ccn12
    3881	2	1	-7	-3.5	-1	-14
COc1ccc(Br)cc1CNC(=O)C1CCN(c2nnc(N3CCCC3=O)s2)CC1
    6090	6	4	2	2.4	1	-24
O=c1oc2ccccc2cc1-c1nnc(-c2cccc(Br)c2)o1
    x	1	1	-2	1.8	-11	-37
CNCC(Cc1ccccc1)NCC(CC1CCCCC1)NCCCc1ccccc1 (configuration not stated)
    x	x	x	x	85*	82	x
Cc1ccc(N(C(=O)c2snc(C(N)=O)c2N)C(C(=O)NCC2CCCO2)c2c[nH]c3ccccc23)cc1 (configuration not stated)
    3512	12	11	-2	-0.3	-11	-6
Cc1ccc(SCC(=O)NC2CCCCCC2)cc1
    4701	x	x	-4	x	x	-207
Cn1c(SCCCC(=O)c2ccc(F)cc2)nnc1-c1ccncc1
    3301	10	3	-10	8.0	1	-18
COc1ccccc1CNC(=O)C1CC(c2cccc([N+](=O)[O-])c2)=NO1 (configuration not stated)
    2942	0	0	2	-0.5	-1	-5
CCO[C@H]1OC(C(=O)N2CCN(Cc3ccc4c(c3)OCO4)CC2)=C[C@@H](C)[C@@H]1CCCO
    2991	x	x	-4	x	x	-12

# Entries of single compounds from above. Order of screens: Bead autofluor | Mtb hypoxia inh | Mtb hypoxia inh growth | BJeLR lethal | RN4220 kill | ugtP null kill | PrP 5UTR inh
# `COc1ccccc1CNC(=O)C1CC(c2cccc([N+](=O)[O-])c2)=NO1` (configuration not stated) is listed as 2942 | 0 | 0 | 2 | -0.5 | -1 | -5
# `O=C(NCCC1CCCCN1S(=O)(=O)c1ccccc1)C(=O)NCc1ccc(F)cc1` (configuration not stated) is listed as x | -4 | 5 | 7 | -1.8 | 7 | -13

# Next compounds follow.
# Below each SMILES: Bead autofluor	Mtb hypoxia inh	Mtb hypoxia inh growth	BJeLR lethal	RN4220 kill	ugtP null kill	PrP 5UTR inh
O=C(CCCCO)CCCCCCCCC1NC(CO)C(O)C1OC1OC(CO)C(O)C(O)C1O (configuration not stated)
    x	8	3	x	3.7	-3	x
CCOC(=O)c1c(NC(=O)CSc2nnc(CNC(=O)c3ccco3)n2C)sc2c1CCC2
    9716	-1	-4	-3	7.4	13	-2
Cc1ccc(-c2csc(N3CCC(C(N)=O)(N4CCCCC4)CC3)n2)cc1
    5634	1	-1	12	-5.6	7	-35
COc1cccc(CCc2nnc(CCC(=O)NC(C)c3c(C)nn(C)c3C)o2)c1 (configuration not stated)
    4738	5	-5	-5	2.0	8	-25
C=CCNc1oc(-c2ccc(Cl)cc2)nc1C#N
    2749	2	2	x	7.8	-2	9
CCn1cc(C(=O)N2CCN(C3CCCCC3)CC2)c2cc(OC)c(OC)cc2c1=O
    3464	15	7	3	10	22	-1
COC(=O)c1[nH]c2cc(OC)ccc2c1NC(=O)CCN1CCSCC1
    10504	9	6	6	4.3	-2	-16
CC12c3ccccc3C(c3ccccc31)C1C(=O)N(c3ccncc3)C(=O)C12 (configuration not stated)
    4334	9	8	3	-1.9	5	-13
Cc1nsc(Nc2ccc([N+](=O)[O-])cc2)c1C#N
    4161	-3	-18	17	3.8	3	-20
Cc1c(C(=O)N2CCN(C(c3ccccc3)c3ccccc3)CC2)oc2ccccc12
    8455	5	2	x	-10	36	-20
CCn1c(COc2ccccc2)nnc1SCC(=O)CC(=O)Nc1ccccc1OC
    21864*	4	3	-28	9.7	-11	-9
CN(c1ncc(C(F)(F)F)cc1Cl)N1C(=O)C2ONC3(C(=O)CC(C)(C)CC3=O)C2C1=O (configuration not stated)
    5100	4	-2	4	6.8	2	-3
O=C(COC(=O)c1cncc(Br)c1)Nc1nnc(-c2ccccc2)o1
    5815	4	-1	2	10	13	-16
CCCc1ccc(-c2c(C)sc(N)c2C#N)cc1
    4543	10	14	2	4.5	40	-28
Cc1cc(C#N)c(C)n1-c1cc(S(=O)(=O)N2CCOCC2)ccc1N1CCCC1
    2842	8	8	8	1.2	1	-31
Cc1c(C(c2ccccc2Cl)c2c(O)c3ccccc3oc2=O)c(=O)n(-c2ccccc2)n1C (configuration not stated)
    2663	3	10	2	4.3	47	-6
COC(=O)NCCOc1nc(N(C)C)nc(N(C)C)n1
    x	13	-2	12	1.4	-4	-20
Nc1c(C(=O)NCCCc2ccccc2)c2nc3ccccc3nc2n1Cc1cccs1
    8369	-6	-9	-6	-4.0	12	-27
CCc1cc(C(=O)c2ccc(Br)cc2)c(NC(=O)CN(CC)CC)s1
    4112	15	2	-3	-6.7	59	-22
O=C(NCCCN1CCOCC1)c1ccc(Sc2cccc(Cl)c2)c([N+](=O)[O-])c1
    2513	3	5	11	1.5	-2	5
Cc1cc(/C=N/NC(=O)c2cccs2)c(C)n1-c1ccccc1
    4249	x	x	8	x	x	15
CC1(C)Oc2ccc3ccc(=O)oc3c2/C(=C/O)C1=O
    3292	6	0	-7	5.6	2	-15
OCCC1CN(Cc2cccn2-c2ncccn2)CCN1Cc1ccc(F)cc1 (configuration not stated)
    9519	-4	3	12	1.0	-3	-26
O=C(O)c1ccc2c(=O)n(-c3ccc(F)c(Cl)c3)c(=S)[nH]c2c1
    4231	17	12	0	0.4	0	-15
COCCNc1nnnc2c1sc1nc(N3CCOCC3)c3c(c12)CC(C)(C)OC3
    4294	13	5	2	-0.3	8	-3
CC(=O)Nc1ccc(S(=O)(=O)NCC(=O)OCC(=O)NC23CC4CC(CC(C4)C2)C3)cc1
    1946	0	1	-10	-3.7	-12	-73
CN(C(=O)COC(=O)c1ccc(=O)n(Cc2ccccc2)n1)C1CCCCC1
    4183	9	7	x	-1.2	2	-14
COc1ccccc1C(=O)Nc1ccnn1C1CCN(C2CCSCC2)CC1
    7081	1	-3	1	0.6	0	-1
COc1ccc([C@@]2(C(C)C)ON(c3ccccc3C(F)(F)F)C2=O)cc1
    2820	0	-2	x	13	26	11
CN1CCc2cccc3c2[C@H]1Cc1ccc(O)c(O)c1-3
    5979&4474&5022	x	x	10	x	x	-6&-8&8

# The list goes on:
# Below each SMILES: Bead autofluor	Mtb hypoxia inh	Mtb hypoxia inh growth	BJeLR lethal	RN4220 kill	ugtP null kill	PrP 5UTR inh
Cc1occc1C(=O)Nc1cccc(C(=O)O)c1
    10124	-4	-11	16	1.4	1	x
O=C(CSc1nc2nn(-c3ccccc3)c(=O)c-2c2n1CCCCC2)Nc1cccc(F)c1
    5893	5	0	x	2.2	-18	-8
Nc1cccc(N=Cc2c(O)n(Cc3ccc(F)cc3)c(=O)[nH]c2=O)c1
    2683	-3	-2	-4	25	17	-10
COc1ccc(O)c(C=NNc2nc3ccccc3[nH]2)c1
    x	-6	5	x	0.6	2	x
CN(C)CCNC(=O)/C(=C/c1ccc(-c2ccc(Cl)cc2Cl)o1)NC(=O)c1ccccc1
    2516	18	11	1	-10	-30	5
O=C(Nc1ccccc1F)Nc1cc(S(=O)(=O)N2CCOCC2)ccc1N1CCCC1
    4355	-3	1	14	10.0	2	-9
COc1cccc(-c2cc(C(=O)N3CCCc4ccccc43)no2)c1
    12935	-3	9	-7	1.6	-5	-15
CCOC(=O)c1nnn(CC(=O)NC(=O)Nc2ccc(F)cc2)c1C(=O)OCC
    5590	7	-3	6	2.1	12	-26
Cc1ccc(C)c(N2CCN(C(=O)c3ccc4c(=O)n5c(nc4c3)CCCCC5)CC2)c1
    4902	x	x	-1	0.3	9	-4
FC(F)(F)c1cccc(-n2nnnc2C2(N3CCOCC3)CCCCC2)c1
    4806	x	x	-1	4.5	-7	-13
Cc1cc(NC(=O)c2ccc(C)c(C)c2)no1
    3565	11	7	-1	2.4	2	-62
Cc1ccc(C(C)C)cc1OCC(=O)Nc1ccc(-n2cnnn2)cc1
    x	1	8	x	1.1	-1	-16
CC1=C(C(=O)OCc2ccccc2)C(c2ccc(Cl)cc2Cl)NC(=O)N1CCCC(=O)O (configuration not stated)
    4366	7	7	x	22	27	-13
COCCn1c(SCC(=O)NC2CCCC(C)C2C)nc2ccccc2c1=O (configuration not stated)
    x	3	11	x	-0.8	3	-3
COCCNCC(=O)C12CC3CC(CC(C3)C1)C2
    10449	7	5	6	3.6	0	-9
Cc1cc(C)nc(NC(=O)NC(=O)c2ccccc2)n1
    5004	1	8	6	5.2	3	-22
Nc1ccccc1Oc1ccc2ccccc2c1
    1920	x	x	-2	x	x	-10

# Among those listed so far, 9 contain an aryl thioether with sulfur outside any ring:
# Below each SMILES: Bead autofluor	Mtb hypoxia inh	Mtb hypoxia inh growth	BJeLR lethal	RN4220 kill	ugtP null kill	PrP 5UTR inh
CCn1nnnc1SCC(=O)Nc1cccc(C)n1
    2696	x	x	4	-0.6	3	-12
CCOC(=O)CSc1nc(C)c2ccccc2n1
    3378	11	8	-7	9.6	0	-35
Cc1ccc(SCC(=O)NC2CCCCCC2)cc1
    4701	x	x	-4	x	x	-207
Cn1c(SCCCC(=O)c2ccc(F)cc2)nnc1-c1ccncc1
    3301	10	3	-10	8.0	1	-18
CCOC(=O)c1c(NC(=O)CSc2nnc(CNC(=O)c3ccco3)n2C)sc2c1CCC2
    9716	-1	-4	-3	7.4	13	-2
CCn1c(COc2ccccc2)nnc1SCC(=O)CC(=O)Nc1ccccc1OC
    21864*	4	3	-28	9.7	-11	-9
O=C(NCCCN1CCOCC1)c1ccc(Sc2cccc(Cl)c2)c([N+](=O)[O-])c1
    2513	3	5	11	1.5	-2	5
O=C(CSc1nc2nn(-c3ccccc3)c(=O)c-2c2n1CCCCC2)Nc1cccc(F)c1
    5893	5	0	x	2.2	-18	-8
COCCn1c(SCC(=O)NC2CCCC(C)C2C)nc2ccccc2c1=O (configuration not stated)
    x	3	11	x	-0.8	3	-3
